High-throughput results deposited in PubChem by several laboratories.
Calb FLC: affects C. albicans growth with fluconazole; C. albicans CaCi-2 (fluconazole-resistant clinical isolate) + fluconazole, Alamar Blue growth, 48 h; growth inhibition, % (concentration not given with the values); 0.57% of 300,000 active; AID 1979;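 active means most replicates above 75%; inconclusive means exactly half above 75%; inactive means most below 75%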;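 further: all wells also contain fluconazole at 8 µg/ml as a sub-toxic cotreatment; 0% = median of DMSO wells and 100% = median of geldanamycin control wells; wells of about 8 µL received 7.5 nL stock; the first replicate is given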
AF4-AF9 inh: blocks AF4 peptide binding to human AF9. P42568. AlphaScreen, biotin-AF4 peptide binding to FLAG-AF9. inhibition, % at 10 µM. 0.47% of 350,000 active;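 active means every replicate reaching a set inhibition limit, whatever the replicate mean, cut at about 25% in these data; inconclusive means mean inhibition reaches that limit but some replicates miss it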;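 further: 0% = plate neutral control median and 100% = total signal loss; the record names both 10 and 1 µM as test concentration; the first replicate is given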
Target sequence (P42568 whole entry, looked up): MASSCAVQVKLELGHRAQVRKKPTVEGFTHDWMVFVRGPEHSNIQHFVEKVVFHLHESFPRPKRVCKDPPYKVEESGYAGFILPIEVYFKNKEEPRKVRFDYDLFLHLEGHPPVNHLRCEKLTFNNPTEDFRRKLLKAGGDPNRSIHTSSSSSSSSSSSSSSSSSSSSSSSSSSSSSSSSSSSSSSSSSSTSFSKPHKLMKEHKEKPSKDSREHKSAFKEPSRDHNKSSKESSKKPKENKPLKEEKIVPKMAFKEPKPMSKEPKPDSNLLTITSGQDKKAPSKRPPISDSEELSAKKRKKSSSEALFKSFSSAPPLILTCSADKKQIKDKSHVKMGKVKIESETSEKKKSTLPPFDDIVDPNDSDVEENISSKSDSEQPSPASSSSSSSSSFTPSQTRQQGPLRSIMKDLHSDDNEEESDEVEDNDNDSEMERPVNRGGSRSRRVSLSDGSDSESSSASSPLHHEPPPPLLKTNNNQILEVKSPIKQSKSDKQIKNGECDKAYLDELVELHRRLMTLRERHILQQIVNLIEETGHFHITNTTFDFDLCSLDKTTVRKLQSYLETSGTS
Vif A3G: HIV-1 Vif–A3G interaction blockers – biochemical, TR-FRET, GST-Vif 1-94, biotin-A3G peptide, dose response retest, primary screen (AID 1117319) | TR-FRET GST-Vif / biotin-A3G peptide binding; higher % means a stronger effect; test concentration not given here; strong numbers were not always called active | inhibition, %; hits with a dose series show IC50 in µM | 0.57% of 260,000 active;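 active means above the screen mean plus three standard deviations and confirmed in dose response; inconclusive means results disagree or hit not tested in dose response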;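 further: Vif residues 1-94 fused to GST binding biotinylated APOBEC3G peptide 110-148; 0% = full assay without inhibitor and 100% = GST in place of GST-Vif; retest series ran down from 100 µM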
rRNA inh HTS: inhibitors of bacterial rRNA selective over humanized ribosomes; E. coli WT GFP vs humanized-ribosome RFP mutants, fluorescence, 24 h; hits give low values; DMSO median 0, no signal -100; GFP signal change (wild-type ribosome), % (test concentration not listed); 1.6% of 350,000 active; AID 720706;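 active means significant combined selectivity score with lowered wild-type GFP, culture density cut under 30%, mutant RFP and density less affected; inactive means any of these conditions unmet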; further: one replicate is shown; some compounds called inactive have numbers as strong as hits
T cruzi repl: T. cruzi replication inhibition; T. cruzi beta-gal in NIH3T3, luminescence, 90 h; inhibition, % (no concentration beside the values); 1.4% of 300,000 active;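 active means mean inhibition across valid replicates above about 55%, limit read from the data; inconclusive means mean below that limit but half or more replicates reach it; inactive means mean below it, under half of replicates reach it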;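 further: signal also drops with host cell toxicity which is not excluded here; 0% = plate median of DMSO wells and 100% = zero luminescence signal; higher percent means less beta-gal luminescence so fewer parasites; stock transfer was 50 nL into about 50 µL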
Bfl-1 A1 inh: inhibitors of the anti-apoptotic protein A1, read as caspase activation; 0.066% of 330,000 active; caspase activation, % (concentration not given with the values); MEF A1-2A-BIM cells, Caspase-Glo 3/7 luminescence, 3 h; percent of clofoctol response, vehicle zero;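 active means over half of replicate activation scores above 10%, or exactly half above 10 with the replicate mean above 10; inconclusive means replicate mean below 10 yet half the replicates above 10; inactive means over half of replicates below 10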;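 further: wells of about 30 µL received 50 nL stock; many hits fall short of the cut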
RanGTP-Impb inh: disruptors of Ran-importin-beta complex formation – biochemical, FRET, CFP-Ran, YFP-importin-beta, homogeneous, primary screen; cell-free CFP-Ran/YFP-importin-beta FRET ratio; inhibition, % (test concentration not listed); 1.1% of 300,000 active; AID 2216;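 active means most replicates above 15%; inconclusive means exactly half above 15%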;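 further: 0% = DMSO wells and 100% = Ran loaded with GDP instead of GTP; wells of about 40 µL received 100 nL stock; the first replicate is given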
Beta cell apopt: beta cell apoptosis inhibition. 0.8% of 300,000 active. INS-1E cytokine-induced death, ATP luminescence, 48 h; percent of positive-control rescue, neutral wells zero. protection from apoptosis, % (concentration not given with the values);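 active means all replicates at 75% or more, or half of them and the mean; inconclusive means half reach 75% but not the mean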;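 further: 0% = cytokine-treated negative control wells and 100% = positive control rescue; higher means more ATP so stronger rescue from cytokine killing; wells of about 40 µL received 100 nL stock; the first replicate is given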
rRNA inh HTS OD600: also measured in rRNA inh HTS; calls as there; OD600 change, %; measured here: OD600 growth;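 optical density of the mix in the first replicate; 0 = DMSO median and -100 = no signal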
rRNA inh HTS RFP: second read-out of rRNA inh HTS, no call of its own (marks repeat the call); RFP signal change, %; measured here: RFP humanized mutant strains;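 first replicate; 0 = DMSO median and -100 = no signal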
* hit, by the source's call. This is a subset (hit frequency here may not be typical).

What do the screens show for `O=C(c1ccccc1)N1CCN(S(=O)(=O)c2ccc(Cl)c(C(F)(F)F)c2)CC1`?
AF4-AF9 inh: -0.6; Vif A3G: -9%; rRNA inh HTS: -1; Bfl-1 A1 inh: 1.5; Beta cell apopt: 0; rRNA inh HTS OD600: 6; rRNA inh HTS RFP: -2.1

How did Cc1ccc(S(=O)(=O)N2CCN(C(=O)Cc3ccc(S(=O)(=O)N4CCOCC4)s3)CC2)cc1 do in these assays?
Calb FLC: 17; AF4-AF9 inh: -1.2; rRNA inh HTS: -1; T cruzi repl: 29; Bfl-1 A1 inh: 0.3; RanGTP-Impb inh: -4.5; Beta cell apopt: 0; rRNA inh HTS OD600: -14; rRNA inh HTS RFP: 18

How did O=S(=O)(Cc1ccccc1Cl)NCCc1ccc(F)cc1 do in these assays?
Calb FLC: -9; AF4-AF9 inh: 1.3; rRNA inh HTS: -18; T cruzi repl: -14; Bfl-1 A1 inh: -1.1; RanGTP-Impb inh: -1.7; Beta cell apopt: -13; rRNA inh HTS OD600: -17; rRNA inh HTS RFP: -5.9

How did Cc1ccc(N(C)C(=O)c2cc(S(=O)(=O)N3CCCCC3)c[nH]2)cc1 do in these assays?
Calb FLC: 4; AF4-AF9 inh: 2.5; rRNA inh HTS: -10; T cruzi repl: -9; Bfl-1 A1 inh: 0.6; RanGTP-Impb inh: 4.7; Beta cell apopt: -7; rRNA inh HTS OD600: -28; rRNA inh HTS RFP: -7.1

Results for CC(=O)Nc1ccc(S(=O)(=O)N2CCN(S(=O)(=O)c3ccc(F)c(F)c3F)CC2)cc1 ?
Calb FLC: 0; AF4-AF9 inh: 3.7; Vif A3G: -9%; rRNA inh HTS: 11; T cruzi repl: -6; Bfl-1 A1 inh: -0.2; RanGTP-Impb inh: -1.9; Beta cell apopt: 6; rRNA inh HTS OD600: 24; rRNA inh HTS RFP: 0.7

Results for O=C(Cn1nnnc1CN1CCOCC1)N1CCC(c2cccc(Cl)c2)C1 (stereo unspecified) ?
Calb FLC: -1; AF4-AF9 inh: 1.3; rRNA inh HTS: 11; T cruzi repl: -1; Bfl-1 A1 inh: -0.4; RanGTP-Impb inh: 7.8; Beta cell apopt: -4; rRNA inh HTS OD600: 9; rRNA inh HTS RFP: 0.0

Results for CC(C)(C)NC(=O)c1ccc2c(c1)C1C3CCC(C3)C1C(c1ccccc1)N2 (stereo unspecified) ?
Calb FLC: -2; Vif A3G: inconclusive; T cruzi repl: 23; Bfl-1 A1 inh: 0.6; RanGTP-Impb inh: inconclusive; Beta cell apopt: 6

What do the screens show for `CCN(Cc1ccccc1)C(=O)CCNS(=O)(=O)c1ccc2c(c1)CC(C)N2C(C)=O` (stereo unspecified)?
Calb FLC: -12; AF4-AF9 inh: -2.6; rRNA inh HTS: -2; T cruzi repl: 8; Bfl-1 A1 inh: 1.7; RanGTP-Impb inh: 1.7; rRNA inh HTS OD600: -2; rRNA inh HTS RFP: 2.2

What do the screens show for `Cc1cccc(C)c1NC(=O)CN(C)C(=O)c1ccccc1Sc1ccccc1C#N`?
AF4-AF9 inh: -0.6; Vif A3G: -8%; Bfl-1 A1 inh: 0.2; Beta cell apopt: 0

How did O=C(NNc1ccccc1C(F)(F)F)c1sccc1Br do in these assays?
Calb FLC: 0; AF4-AF9 inh: -0.9; Vif A3G: -8%; rRNA inh HTS: -1; Bfl-1 A1 inh: -0.7; RanGTP-Impb inh: -2.6; Beta cell apopt: -5; rRNA inh HTS OD600: -2; rRNA inh HTS RFP: 0.2

What do the screens show for `COc1ccc(C2=NS(=O)(=O)N(C)C(C(=O)Nc3cc(OC)c(OC)c(OC)c3)=C2)cc1`?
Calb FLC: -6; AF4-AF9 inh: 14; rRNA inh HTS: -2; T cruzi repl: -11; Bfl-1 A1 inh: -0.2; RanGTP-Impb inh: 0.7; Beta cell apopt: 3; rRNA inh HTS OD600: -15; rRNA inh HTS RFP: 3.8

Results for CCOC(=O)CCc1c(C)c(C#N)c2[nH]c3ccccc3n2c1=O ?
Calb FLC: -2; Vif A3G: 12%; T cruzi repl: -3; Bfl-1 A1 inh: -0.4; RanGTP-Impb inh: 4.0; Beta cell apopt: 26

What do the screens show for `CC(NS(=O)(=O)c1ccccc1)C1CC2CCC1C2` (stereo unspecified)?
Calb FLC: -9; AF4-AF9 inh: 1.4; rRNA inh HTS: -12; Bfl-1 A1 inh: 0.0; RanGTP-Impb inh: -0.7; Beta cell apopt: 1; rRNA inh HTS OD600: -4; rRNA inh HTS RFP: -0.7

How did CCOc1ccccc1C1N(c2ccc(F)cc2)C(=O)C2CCCN21 (stereo unspecified) do in these assays?
Calb FLC: -4; Vif A3G: -3%; T cruzi repl: -7; Bfl-1 A1 inh: -0.2; RanGTP-Impb inh: inconclusive

What do the screens show for `COc1ccc(CCNc2cc(N3CCN(C(=O)c4ccccc4F)CC3)ccc2[N+](=O)[O-])cc1OC`?
Calb FLC: -2; Vif A3G: 8%; T cruzi repl: 11; Bfl-1 A1 inh: -1.3; RanGTP-Impb inh: 0.2; Beta cell apopt: 104*

Results for CN1CCN(S(=O)(=O)c2ccc(Cl)c3ccccc23)CC1 ?
Calb FLC: -4; AF4-AF9 inh: 2.8; Vif A3G: -6%; rRNA inh HTS: -8; T cruzi repl: 13; Bfl-1 A1 inh: 0.0; RanGTP-Impb inh: -4.1; rRNA inh HTS OD600: -14; rRNA inh HTS RFP: -1.2

What do the screens show for `CCC(CO)Oc1cc(NC(=O)c2ccc([N+](=O)[O-])cc2)c2ncn(C(C)C)c2c1` (stereo unspecified)?
AF4-AF9 inh: 0.5; rRNA inh HTS: 1; Bfl-1 A1 inh: 0.4; Beta cell apopt: -4; rRNA inh HTS OD600: 9; rRNA inh HTS RFP: -3.1

Results for CCc1ccc(N(C(C)=O)c2nc(CCl)cs2)cc1 ?
Calb FLC: -21; AF4-AF9 inh: 3.1; rRNA inh HTS: -2; T cruzi repl: -7; Bfl-1 A1 inh: 1.0; RanGTP-Impb inh: -0.8; Beta cell apopt: -7; rRNA inh HTS OD600: 5; rRNA inh HTS RFP: -0.3

How did O=C(CN1CCN(c2cccc(C(F)(F)F)c2)CC1)NCc1ccccc1 do in these assays?
Calb FLC: -4; AF4-AF9 inh: 0.9; Vif A3G: -3%; rRNA inh HTS: -17; T cruzi repl: -6; Bfl-1 A1 inh: 0.9; RanGTP-Impb inh: 0.9; Beta cell apopt: -3; rRNA inh HTS OD600: -24; rRNA inh HTS RFP: -0.2

Results for Nc1cc(=O)nc(SCC(=O)Nc2ccccc2)n1-c1ccccc1 ?
Calb FLC: 11; AF4-AF9 inh: 1.8; Vif A3G: 5%; rRNA inh HTS: 1; T cruzi repl: -7; Bfl-1 A1 inh: -0.5; RanGTP-Impb inh: 2.1; Beta cell apopt: -2; rRNA inh HTS OD600: 2; rRNA inh HTS RFP: 1.6

What do the screens show for `O=C(O)CCCn1cc(NC(=O)c2ccc(Br)o2)cn1`?
Calb FLC: 0; AF4-AF9 inh: -2.3; Vif A3G: -15%; T cruzi repl: -1; Bfl-1 A1 inh: -0.3; RanGTP-Impb inh: 3.9; Beta cell apopt: 2

Results for CCOC(=O)C1=C(COC(=O)CNC(=O)c2ccc(C(C)(C)C)cc2)NC(=O)NC1C (stereo unspecified) ?
Calb FLC: 1; AF4-AF9 inh: -1.2; Vif A3G: 1%; rRNA inh HTS: -1; T cruzi repl: 3; Bfl-1 A1 inh: 0.3; RanGTP-Impb inh: 3.8; Beta cell apopt: -4; rRNA inh HTS OD600: -8; rRNA inh HTS RFP: 0.3

What do the screens show for `COc1ccccc1N1CCN(c2ccc3cc(S(=O)(=O)N4CCCCC4)ccc3n2)CC1`?
Calb FLC: -9; AF4-AF9 inh: -0.4; rRNA inh HTS: -3; T cruzi repl: 34; Bfl-1 A1 inh: -0.5; RanGTP-Impb inh: 3.3; Beta cell apopt: 29; rRNA inh HTS OD600: 2; rRNA inh HTS RFP: -4.9

How did Nc1c(-c2ccccn2)cnn1-c1nc(-c2ccc(F)cc2)cs1 do in these assays?
Calb FLC: 22; AF4-AF9 inh: -0.3; Vif A3G: 4%; rRNA inh HTS: 14; T cruzi repl: 7; Bfl-1 A1 inh: -0.1; RanGTP-Impb inh: -0.5; Beta cell apopt: 1; rRNA inh HTS OD600: 13; rRNA inh HTS RFP: 5.9

What do the screens show for `COc1ccc(OC)c(S(=O)(=O)N2CCC(C(=O)N3CCc4ccccc4C3)CC2)c1`?
Calb FLC: 0; Vif A3G: inconclusive; T cruzi repl: 10; Bfl-1 A1 inh: -0.3; RanGTP-Impb inh: 3.4; Beta cell apopt: -5

Results for Cc1ccccc1C(=O)NNC1CC(=O)N(c2ccc3c(c2)OCCO3)C1=O (stereo unspecified) ?
Calb FLC: -18; Vif A3G: 1%; T cruzi repl: -13; Bfl-1 A1 inh: 1.4; RanGTP-Impb inh: -1.2; Beta cell apopt: -4

Results for CC(C)(C)c1ccc(C(=O)Nc2cccc(C(=O)N3CCOCC3)c2)cc1 ?
Calb FLC: 2; AF4-AF9 inh: -0.8; rRNA inh HTS: -9; T cruzi repl: 2; Bfl-1 A1 inh: 0.7; RanGTP-Impb inh: 1.1; Beta cell apopt: 5; rRNA inh HTS OD600: -14; rRNA inh HTS RFP: -2.6

How did Nc1ccc2oc3ccccc3c2c1 do in these assays?
Calb FLC: 16; AF4-AF9 inh: 8.2; rRNA inh HTS: -2; T cruzi repl: 6; Bfl-1 A1 inh: -0.7; RanGTP-Impb inh: 3.5; Beta cell apopt: -1; rRNA inh HTS OD600: 4; rRNA inh HTS RFP: -7.0

How did C=CCNC(=O)C1CC(=O)N(c2ccc(C)cc2)C1 (stereo unspecified) do in these assays?
Calb FLC: 0; AF4-AF9 inh: 0.1; Vif A3G: 3%; rRNA inh HTS: 12; T cruzi repl: -15; Bfl-1 A1 inh: 0.7; RanGTP-Impb inh: -0.3; Beta cell apopt: -2; rRNA inh HTS OD600: 12; rRNA inh HTS RFP: -1.4

2 entries drawn at random from the list so far:
How did C=CCNC(=O)C1CC(=O)N(c2ccc(C)cc2)C1 (stereo unspecified) do in these assays?
Calb FLC: 0; AF4-AF9 inh: 0.1; Vif A3G: 3%; rRNA inh HTS: 12; T cruzi repl: -15; Bfl-1 A1 inh: 0.7; RanGTP-Impb inh: -0.3; Beta cell apopt: -2; rRNA inh HTS OD600: 12; rRNA inh HTS RFP: -1.4

Results for Cc1ccccc1C(=O)NNC1CC(=O)N(c2ccc3c(c2)OCCO3)C1=O (stereo unspecified) ?
Calb FLC: -18; Vif A3G: 1%; T cruzi repl: -13; Bfl-1 A1 inh: 1.4; RanGTP-Impb inh: -1.2; Beta cell apopt: -4
